# Mtb H37Rv: Mycobacterium tuberculosis H37Rv growth inhibition, cell based, confirmatory dose response (AID 1949). M. tuberculosis H37Rv growth inhibition. most inactive calls were filed without a number and no value below 0 was filed. inhibition, % at 10 µg/mL; hits with a dose series show IC50 in µg/mL. 100,000 tested, 1.6% active;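 active = confirmed in a dose series; inconclusive = about 50% or more but not retested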;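 note: bacteria grown 7 days with compound before Alamar blue readout; 0% = untreated bacteria and 100% = reference antibiotic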
# An asterisk follows results filed as active; i = inactive; ? = inconclusive.
# Start of the data: the first 3 entries, to show the layout:
mol,Mtb H37Rv
CCOc1cc(C2NC(=S)NC(C)=C2C(=O)Nc2cccc(C(F)(F)F)c2)ccc1OCC(=O)O (stereo unspecified),i
COc1ccc(Cc2nc(-c3ccc(OC)cc3)no2)cc1,11.0%
CC(CC1CC(C)(C)OC1=O)C(=O)Nc1nncs1 (stereo unspecified),5.9%

# The listing (from the top)
mol,Mtb H37Rv
CCOc1cc(C2NC(=S)NC(C)=C2C(=O)Nc2cccc(C(F)(F)F)c2)ccc1OCC(=O)O (stereo unspecified),i
COc1ccc(Cc2nc(-c3ccc(OC)cc3)no2)cc1,11.0%
CC(CC1CC(C)(C)OC1=O)C(=O)Nc1nncs1 (stereo unspecified),5.9%
CS(=O)(=O)N(CC(=O)Nc1ccc(S(=O)(=O)N2CCCCC2)cc1)c1cccc([N+](=O)[O-])c1,i
Cc1ccc(CC2C(=O)N(c3ncccn3)C(=O)C2C)cc1 (stereo unspecified),i
CCOCc1nnc(NC(=O)Cc2ccc(OC)c(OC)c2)s1,4.3%
Cn1c(Sc2cnn(-c3ccccc3)c(=O)c2Br)nnc1-c1ccccc1,2.81µg/mL*
CCCC(=O)N1CCN(c2ccc(NC(=O)c3cc(Br)ccc3Cl)cc2Cl)CC1,3.52µg/mL*
COc1cc2c(OC)cccc2cc1C(=O)O,i
COc1ccc(NC(=O)Cn2nnc(-c3ccccc3Cl)n2)c(OC)c1,i
Cc1ccnc(Nc2nc(C)c3ccccc3n2)n1,i
O=C(NCCc1ccccc1)c1cc2cc(Cl)ccc2oc1=O,i
O=C(CSc1nc2ccccc2c(=O)n1CCCN1CCCCC1)NC1CCCC1,i
Cc1sc2ncnc(SCC(=O)NCc3ccco3)c2c1C,i
Cc1ccc(NC(=O)COc2c(C)ccc(C)c2C)cc1,1.1%
COc1cc(NC(=S)NC(=O)c2c(OC)cccc2OC)c(OC)cc1Cl,i
Cc1occc1-c1nnc(SCC(=O)NCc2ccccc2)n1-c1ccccc1,i
Brc1cccc(OCCCN2CCOCC2)c1,i
Cc1cccc(NC(=O)Nc2cc(C)on2)c1,i
Cn1nc(-c2ccc(N3CCOCC3)c(NS(C)(=O)=O)c2)c2ccccc2c1=O,i
CSc1ccc(Cl)c(C(=O)NCCOc2cc(C(C)C)ccc2C)c1,1.1%
COc1ccc(OC(C)C(=O)N2CCN(c3ccccc3F)CC2)cc1 (stereo unspecified),i
Cc1cc(=O)[nH]c(SCCOc2cccc(C(F)(F)F)c2)n1,9.8%
CCc1cccc(CC)c1NC(=O)CSc1nnc(-c2ccc(Cl)cc2)n1-c1ccccc1,3.0%
COc1cc(C2NC(=O)N(CCc3ccccc3)C(C)=C2C(C)=O)c(Cl)cc1O (stereo unspecified),0.9%
COC(=O)c1ccccc1NC(=O)c1ccccc1N(C)S(C)(=O)=O,i
O=C(Nc1cccc(F)c1)N1CCN(c2ccccc2F)CC1,i
Cc1cccc2sc(NC(=O)C3CCCO3)nc12 (stereo unspecified),i
CCc1c(C)c2ccc(OCC(=O)Nc3ccc(C)cc3)c(C)c2oc1=O,i
CCOc1ccccc1C=Nn1c(-c2ccccc2)n[nH]c1=S,i
CSc1ccccc1C(=O)Nc1ccc(Br)cc1,2.7%
O=C1c2cccc3c(Br)ccc(c23)C(=O)N1c1cccc(O)c1,i
Cc1ccc(Cl)c(OCCCN2CCCC(C)C2)c1 (stereo unspecified),i
O=C(O)C(Cc1ccccc1)N=C(NS(=O)(=O)c1ccc(Cl)cc1)c1ccccc1 (stereo unspecified),i
CNC(=O)CN(c1ccc(Cl)cc1)S(=O)(=O)c1ccccc1,i
CCOc1ccc(N2C(=O)CC(N3CCN(C(c4ccc(F)cc4)c4ccc(F)cc4)CC3)C2=O)cc1 (stereo unspecified),i
Cc1ccc(-n2c(CNCc3cccnc3)nc3ccccc3c2=O)cc1,i
O=C(NCCC1=CCCCC1)C1CCN(S(=O)(=O)c2cc(Cl)ccc2Cl)CC1,i
O=C(COc1ccc([N+](=O)[O-])cc1)Nc1ccc2oc(-c3cc(Cl)ccc3Cl)nc2c1,6.0%
Nc1cc(N)cc(C(F)(F)C(F)(F)C(F)(F)F)c1,1.5%
N#C/C(=C/c1ccc(N2CCCCC2)o1)c1cccc(F)c1,5.98µg/mL*
COC(=O)c1c(NC(=S)Nc2cccc(OC)c2)sc(C)c1C,0.6%
CCC(=O)Nc1nc2ccccc2n1Cc1ccccc1,?
CC1(C)CC(=O)C2=C(C1)N(Cc1ccccc1)C1=C(C(=O)CC(C)(C)C1)C2c1cccc([N+](=O)[O-])c1,0.1%
CCOC(=O)C(=O)Nc1nnc(CCc2ccccc2)s1,i
O=C(CN(Cc1ccccc1)S(=O)(=O)c1ccccc1)Nc1ccccc1F,3.0%
CCOC(=O)COc1ccc(S(=O)(=O)NCc2ccc(Cl)cc2)cc1,i
C=CCC(C(=O)c1ccccc1)N1CCCCC1 (stereo unspecified),i
O=C1C2C3C=CC(C3=C3CCCCC3)C2C(=O)N1c1ccc(Cl)c(Cl)c1 (stereo unspecified),i
Cc1cccc(-c2cc(C(=O)NCc3cnn(C)c3)c3ccccc3n2)c1,i

# Next part:
mol,Mtb H37Rv
CC(C)c1ccc(C(=O)NCc2ccncc2)cc1,i
Cc1cccc(NC(=O)CN2CCCCC2)c1,i
COc1ccc2oc(=O)c(-c3csc(N/N=C/c4ccccc4O)n3)cc2c1,i
CCOc1ccc(N2CC(C(=O)Nc3ccccc3I)CC2=O)cc1 (stereo unspecified),i
O=S(=O)(NCc1ccco1)c1ccc(Oc2ccccc2Cl)cc1,i
COc1cc([N+](=O)[O-])ccc1NC(=O)NCc1ccccc1F,i
COCCNC(=O)C1CCN(C(=O)c2ccc(-c3ccccc3)cc2)CC1,i
COc1ccccc1C(NC(=O)C(C)C)c1cc(Cl)c2cccnc2c1O (stereo unspecified),4.8%
O=C(CC1Sc2ccccc2NC1=O)Nc1cc(Cl)ccc1Cl (stereo unspecified),i
COc1ccc(C(C)(C)C)cc1NC(=S)Nc1ccc(OC)c(OC)c1,0.7%
Cc1c(Cl)cccc1NC(=O)CC1C(=O)NCCN1C(=O)C(F)(F)F (stereo unspecified),0.6%
O=c1cc(NCCNc2cc(=O)oc3ccccc23)c2ccccc2o1,i
C=CCOc1c(I)cc(CNc2ccc(C)c(Cl)c2)cc1OC,5.7%
COc1ccc(C(=O)N2CCC(C(=O)NCc3ccc(Cl)cc3)CC2)cc1OC,i
CCC(C)c1ccccc1NC(=O)c1ccc(OC)c(Cl)c1 (stereo unspecified),3.5%
O=C(Nc1ccc2c(c1)oc1ccccc12)c1cc(F)c(F)cc1Cl,3.6%
CCc1ccc(C(=O)N2CCN(c3ccc([N+](=O)[O-])c(N4CCCCC4)c3)CC2)cc1,3.9%
Cc1cc(C)cc(C(=O)NC(=S)Nc2cc(-c3nc4ncccc4o3)ccc2Cl)c1,4.6%
CC1CCC(NC(=O)C2CC(=O)N(c3ccc(F)cc3)C2)CC1 (stereo unspecified),i
Cc1cc(C)n(CC(O)Cn2ccc3ccccc32)n1 (stereo unspecified),i
Cc1ccc(S(=O)(=O)NCC(=O)Nc2ccccc2F)cc1,i
O=C(N/N=C/c1ccncc1)c1n[nH]c2c1CCC2,i
CCOC(=O)N1CCc2c(sc(NC(=O)CN3CCN(C)CC3)c2C(=O)Nc2ccccc2)C1,2.3%
CC(C)(C)NS(=O)(=O)c1ccc(NC(=O)c2ccco2)cc1,0.7%
CCc1sc(NC(=O)Cc2ccccc2[N+](=O)[O-])nc1-c1ccccc1,i
O=C(Oc1ccc(Br)cc1Cl)c1cccs1,13.6%
CC(C)c1ccc(OCC(=O)NCCCNC(=O)COc2ccc(C(C)C)cc2)cc1,i
O=C(NCC1(c2ccccc2)CCOCC1)c1cccc(Cl)c1,i
COc1ccc(S(=O)(=O)Nc2ccc(C(=O)O)c(O)c2)cc1[N+](=O)[O-],i
CCC(c1nc2ccccc2c(=O)n1CCCn1ccnc1)N1C(=O)c2ccccc2C1=O (stereo unspecified),i
Cc1ccc(S(=O)(=O)Nc2ccc(C(=O)NCc3ccccc3)cc2)cc1,i
COc1ccc(-c2cc(C(F)F)n3ncc(C(=O)NCc4cccs4)c3n2)cc1,i
CCOc1ccc(S(=O)(=O)Nc2ccc(S(=O)(=O)Nc3cccc4ccccc34)cc2)cc1,i
C=CCNC(=O)c1cccc(OC)c1OC,i
O=C(CSc1ccc(Cl)cc1)Nc1ccccc1N1CCOCC1,i
COc1ccccc1-n1c(-c2cccs2)n[nH]c1=S,2.4%
COCCNC(=O)c1ccccc1NC(=O)c1ccccc1OC,i
COc1ccccc1CNC(=S)Nc1ccc(S(N)(=O)=O)cc1,0.6%
O=C(CCc1ccccc1)Nc1cc(NC(=O)CCc2ccccc2)cc(C(=O)O)c1,i
CC(CNC(=O)C(=O)Nc1cccc(Cl)c1Cl)c1ccccc1 (stereo unspecified),0.2%
CCCCC(=O)NC1(C(F)(F)F)C(=O)N(CCCC)C(C)=C1C(C)=O (stereo unspecified),i
O=C1CC(Cc2ccc(Cl)cc2)C(=O)N1c1ccncc1 (stereo unspecified),i
CCc1sc(C(=O)Nc2cccc(NC(C)=O)c2)cc1Br,i
Cc1ccc(C)c(S(=O)(=O)Nc2ccc(I)cc2)c1,i
CCC1(C(=O)c2ccccc2)C(c2ccc(Br)cc2)C1(C(=O)OC)C(=O)OC (stereo unspecified),i
Nc1nc(-c2ccc(Cl)cc2)nn1C(=O)c1ccccc1Cl,5.3%
Cc1noc(C)c1C(=O)Nc1cccc([N+](=O)[O-])c1C,i
CCOc1ccc2nc(SCC(=O)NC3CC3)sc2c1,i
COc1cccc(NC(=O)COc2ccccc2C(N)=O)c1,i
COc1ccccc1OCCNC(=O)c1cc(OC)c(OC)c(OC)c1,i

# (next part)
mol,Mtb H37Rv
CC(C)c1cc(I)ccc1NC(=O)CSc1nnc(CSCc2ccccc2)n1C,i
Cc1cc(C)cc(OCC(=O)NNC(=O)CCC(=O)Nc2ccc(C)cc2C)c1,i
CCOC(=O)N1CCN(c2nc(-c3ccccc3)c3cc(C)ccc3n2)CC1,i
COc1ccc(OC)c(C(=O)c2ccc(C(=O)Nc3ccc(N(C)C)cc3)cc2)c1,i
COc1nnc(-c2ccc(N3CCOCC3)c(NS(=O)(=O)c3ccc(Cl)cc3)c2)c2ccccc12,15.5%
Cc1ccc(N2CC(=O)N(c3ccccc3)C2=S)cc1,i
CC(C)n1cc(/C=C(\C#N)S(=O)(=O)c2ccccc2)c2ccccc21,i
Cc1ccc2c(c1)C(O)(CC(=O)c1ccc(I)cc1)C(=O)N2 (stereo unspecified),i
CC(=O)N1CCN(c2ccc(NC(=O)C(Cl)(Cl)Cl)cc2)CC1,i
COCc1nc2ccccc2n1CC1CC1(Cl)Cl (stereo unspecified),i
CC(=O)C(=O)c1ccc(Br)cc1,i
C=CCOc1ccc(NC(=O)C(=O)NC2CC2)cc1,i
CCCN1C(=O)C2Cc3c([nH]c4ccccc34)C(C)N2C1=O (stereo unspecified),i
Cc1nn2c(CN(C(=O)c3ccco3)c3ccccc3)nnc2c2ccccc12,i
COc1ccccc1OC1OCC(O)C(O)C1O (stereo unspecified),i
CCOC(=O)C1CCN(C(=S)Nc2ccc(Cl)cc2C)CC1,i
COC(=O)c1cccc(NC(=O)c2cccc(Br)c2)c1C,i
Cc1nnc(SCC(=O)NC2CCCCCC2)n1-c1ccccc1,i
CCn1c(=O)[nH]c2cc(C(=O)N3CCN(c4ccc(OC)cc4)CC3)ccc2c1=O,i
CCC(C)c1ccccc1NC(=S)NC(=O)c1cccc(Cl)c1Cl (stereo unspecified),i
O=C(Cn1nnc(-c2ccccc2)n1)Nc1ccccc1F,i
CCCNC(=S)NC(=O)c1ccc(C(C)(C)C)cc1,17µg/mL*
N/C(=N\OC(=O)c1ccc(Cl)cc1Cl)c1ccccn1,1.5%
Cc1ccccc1CNCCc1c[nH]c2ccccc12,8.4%
COc1ccc2cc(Br)ccc2c1CC(=O)Nc1ccccc1-n1cccc1,0.9%
OCCNCc1ccccc1OCc1ccc(Cl)cc1,i
Cc1cc(C)c(S(=O)(=O)N2CCN(C(=O)CCn3nc(C)cc3C)CC2)c(C)c1,1.5%
CC(C)(C)c1csc(NC(=O)CSc2ccc(Cl)cc2)n1,?
Cc1cccc(NC(=O)c2cccc(Oc3ccc(C(F)(F)F)cc3[N+](=O)[O-])c2)c1,3.3%
O=S(=O)(Oc1ccc2ccccc2c1)c1ccc(Br)cc1,4.7%
Cc1ccc(CN(CC(=O)NCc2ccccn2)S(=O)(=O)c2ccc(Cl)cc2)cc1,i
O=C(CSc1nnc2ccc3ccccc3n12)Nc1nc(-c2ccc(Cl)cc2)ns1,i
Cc1cc(/C=C(/C#N)c2nc3ccccc3[nH]2)c(C)n1-c1ccncc1,i
O=C(Nc1ncc(Cc2ccc(SC(F)F)cc2)s1)c1ccccc1,i
Cc1ccc(C(=O)c2sc3nc4c(cc3c2N)C(=O)CCC4)cc1,0.7%
Cc1ccc(OCC(=O)Nc2ccccc2C(N)=O)c(C)c1,i
Fc1c(F)c(-n2cccn2)c(F)c(F)c1-c1c(F)c(F)c(-n2cccn2)c(F)c1F,i

# Three entries drawn at random from the list so far:
mol,Mtb H37Rv
Cc1cc(C)c(S(=O)(=O)N2CCN(C(=O)CCn3nc(C)cc3C)CC2)c(C)c1,1.5%
O=S(=O)(Oc1ccc2ccccc2c1)c1ccc(Br)cc1,4.7%
Cc1ccc(C(=O)c2sc3nc4c(cc3c2N)C(=O)CCC4)cc1,0.7%

# Not all compounds are listed, so the mix of outcomes need not match the whole.
